Source: PubChem BioAssay
Lassa entry = blocks Lassa virus binding or cell entry; Lassa virus pseudotyped entry inhibition, cell-based qHTS; control for the full effect not named in the record; many of its hits are not listed in these tables; Potency, µM (titrated, usually from 49.2 µM), for the others: at the top dose activity change, negative = inhibition, actives largely listed as inhibitors; 4.1% of 18,000 active; AID 720533; active = well fitted inhibition curve with a large enough effect; inconclusive = small, poorly fitted or top-dose-only effect; inactive = no such curve, though single readings can be large or run the other way; tested in HEK293 cells; further: luciferase read-out
Marburg entry = blocks Marburg virus binding or cell entry; Marburg virus pseudotype entry/binding inhibition, cell-based; control for the full effect not named in the record; many of its hits are not listed in these tables; 6.5% of 18,000 active; Potency, µM (titrated, usually from 49.2 µM), for inactives: at the highest dose activity change, negative = inhibition, most hits filed as inhibitors; active means well fitted inhibition curve with a large enough effect; inconclusive means small, poorly fitted or top-dose-only effect; inactive means no such curve, though single readings can be large or run the other way; tested in HEK293 cells; further: luciferase read-out
Starred values were filed as active, the others as inactive; ? = inconclusive; · = no result given; & = joins results of further samples; [ ] = dose if it differs, or a comment. On the % scale 0 is the no-effect control and ±100 the full control effect; potency means the concentration at half of the fitted maximal effect.

Below each compound – Lassa entry, Marburg entry
- CC[C@H](C)[C@H](NC(=O)[C@H](CCC(=O)O)NC(=O)[C@@H](N)CO)C(=O)N[C@@H](CCC(N)=O)C(=O)N[C@@H](CC(C)C)C(=O)N[C@@H](CCSC)C(=O)N[C@@H](Cc1cnc[nH]1)C(=O)N[C@@H](CC(N)=O)C(=O)N[C@@H](CC(C)C)C(=O)NCC(=O)N[C@@H](CCCCN)C(=O)N[C@@H](Cc1cnc[nH]1)C(=O)N[C@@H](CC(C)C)C(=O)N[C@@H](C)C(=O)N[C@@H](CO)C(=O)N[C@H](C(=O)N[C@@H](CCC(=O)O)C(=O)N[C@@H](CCCNC(=N)N)C(=O)N[C@@H](CCSC)C(=O)N[C@@H](CCC(N)=O)C(=O)N[C@@H](Cc1c[nH]c2ccccc12)C(=O)N[C@@H](CC(C)C)C(=O)N[C@@H](CCCNC(=N)N)C(=O)N[C@@H](CCCCN)C(=O)N[C@@H](CCCCN)C(=O)N[C@@H](CC(C)C)C(=O)N[C@@H](CCC(N)=O)C(=O)N[C@@H](CC(=O)O)C(=O)N[C@H](C(=O)N[C@@H](Cc1cnc[nH]1)C(=O)N[C@@H](CC(N)=O)C(=O)N[C@@H](Cc1ccccc1)C(=O)O)C(C)C)C(C)C
    6.5%, -5.3%
- O=c1cc(-c2ccccc2O)oc2c1ccc1ccccc12
    9.2%, 12.7%
- C=C1C([C@@]2(C)C(OC(C)=O)CC(=O)O[C@@](C)(COC(C)=O)C2CC(=O)OC)C(OC=O)C(OC(=O)C(OC(C)=O)C(C)CC)[C@]2(C)C(c3ccoc3)CC(=O)C12O (stereo not given in full)
    -1.8%, -0.5%
- COc1ccc(CNC(=O)OCCN2CCN(S(=O)(=O)c3ccc(C)cc3)CCC2=O)cc1
    -18.9%, ?
- Cc1cc2c(C(C)C)c(O)c(O)c(C=O)c2c(O)c1-c1c(C)cc2c(C(C)C)c(O)c(O)c(C=O)c2c1O
    11.2µM*, 20µM*
- O=S1CCN(Cc2ccc(-c3ccc4ncnc(Nc5ccc(OCc6ccccc6)c(F)c5)c4c3)o2)CC1
    ·, ?
- CCOc1cc(OP(=S)(OC)OC)nc(CC)n1
    -3.7%, 7.5%
- COC1=C[C@H](C(=O)N[C@H]2CCCC[C@H]2NC(C)=O)[C@H](C)[C@@H](c2ccccc2)CC1=O
    -1.5%[8.59 µM], ?
- NC(=O)c1cc[n+](CC2=C(C(=O)O)N3C(=O)[C@@H](NC(=O)C(c4ccccc4)S(=O)(=O)[O-])[C@H]3SC2)cc1 (stereo not given in full)
    -3.4%[17.8 µM], -1.3%[17.8 µM]
- CC#CCN1C(=O)NC(c2ccccc2)C(C(=O)OCC)=C1c1ccccc1 (stereo not given)
    -15.7%[8.59 µM], 7.0%[8.59 µM]
- CCCCCCCCCCCC(=O)O[C@H](CC(=O)O)C[N+](C)(C)C
    -5.2%, 49.8%[activator]
- CC(=O)Nc1cc(C(=O)N2CC3(C)CC2CC(C)(C)C3)cc2ncn(CCc3ccccn3)c12 (stereo not given)
    6.7%, 4.8%
- CC(=O)N[C@H]1CSSC[C@@H](C(=O)N2CCC[C@H]2C(=O)N2CCC[C@H]2C(=O)N[C@@H](CCCCN)C(=O)N[C@@H](CC(=O)O)C(N)=O)NC(=O)CNC(=O)[C@H](Cc2c[nH]c3ccccc23)NC(=O)[C@H](CCCNC(=N)N)NC(=O)[C@@H](Cc2ccc(Cl)c(Cl)c2)NC(=O)[C@H](Cc2cnc[nH]2)NC(=O)[C@H](CCC(=O)O)NC1=O
    -4.2%, -19.8%
- CN(c1cc2c(c3c1ccn3C)C1CCC2O1)C1CCCCC1 (stereo not given)
    ?, ?
- O=C(CCCN1CCC2(CC1)C(=O)N(Cc1cccc(F)c1)CN2c1ccccc1)c1ccc(F)cc1
    15.8µM*, 8.91µM*
- NS(=O)(=O)c1cc2c(cc1Cl)NC(C(Cl)Cl)NS2(=O)=O (stereo not given)
    -8.1%[17.8 µM], 17.4%[17.8 µM]
- CC(C)[C@@H]1CN[C@H](C(=O)O)[C@@H]1CC(=O)O
    -12.1%, 8.8%
- CCCn1c(=O)c2c(ncn2C)n(CCC)c1=O
    -1.3%, 7.9%
- O=S1(=O)CC(N2CCN(CCO)CC2)CN1C1CCCCC1 (stereo not given)
    16.0%, 26.4%
- CCC(C)C1/C=C\CCCC(=O)N1Cc1ccc(C)cc1 (stereo not given)
    -20.1%, -15.0%

Following part.
Below each compound – Lassa entry, Marburg entry
- CC(=O)N1CCC[C@H]1C(=O)NCC1Cc2cc(Cl)cc(-c3ccc4[nH]ccc4c3)c2O1 (stereo not given in full)
    -8.0%, -24.1%
- CN(C)C1C(=O)C(C(N)=O)=C(O)[C@@]2(O)C(=O)C3=C(O)c4c(O)cccc4[C@@](C)(O)C3CC12 (stereo not given in full)
    -2.7%, 14.7%
- CC(=O)[C@@H]1[C@@H](C)N(Cc2ccccc2)C(=O)N[C@H]1c1ccccc1
    -4.4%[8.59 µM], -26.4%[8.59 µM]
- COc1ccccc1[C@@H]1C(c2ccccc2)=NN(c2ccc(Br)cc2)[C@H]1C(=O)N1CCOC1=O
    -20.5%, -8.3%
- CC(C)C1C(=O)N2CCCC2[C@]2(O)O[C@@](NC(=O)[C@@H]3C=C4c5cccc6[nH]cc(c56)C[C@H]4N(C)C3)(C(C)C)C(=O)N12 (stereo not given in full)
    -5.8%, ?
- C/C(=C\C[Si](C)(C)C)CC[C@H](O)C1=CCCCC1=O
    -1.2%, -6.2%
- CCOC(=O)c1ncc2[nH]c3cccc(OC(C)C)c3c2c1C
    ?, ?
- CC(C)=CCN1C(=O)[C@]2(O[C@H](COc3ccccc3)CC3=C2CCC3)c2ccccc21
    -9.2%[8.59 µM], -4.7%[8.59 µM]
- O=S1(=O)C=CCN1Cc1ccccc1
    38.2%[activator], 6.0%
- CCOC(=O)c1c(C)cc(O)cc1O
    34.9%[activator], 26.7%
- COC(=O)C1(C(=O)OC)Cc2conc2[C@H]1c1ccccc1
    4.5%&-14.5%&3.0%, 1.0%&-1.7%&-0.7%
- CCN(CC)C(=S)S
    ?, 17.1%
- CCCCC/C=C\C/C=C\C/C=C\C/C=C\CCCC(=O)Nc1ccc(O)cc1C
    12.6µM*, ?
- C[C@@H](O)[C@H](N)C(=O)O
    -20.5%, 12.2%
- C[S+](C)CCC(N)C(=O)O (stereo not given)
    1.0%, 6.1%
- Cc1cccnc1-c1cccc2c1OC(CNC(=O)Cn1cncn1)C2 (stereo not given)
    -1.3%, -13.1%
- COc1ccc(O[C@H]2C=C[C@@H](c3ccccc3)O[C@H]2CON=C(C)CCN2CCCCc3nc(C)c(C)cc32)cc1
    24.3%[8.59 µM], 50.3%[activator][8.59 µM]
- Cc1cc(-c2ccnc(-n3ncc(C(=O)NC(C)(C)CO)c3C3CC3)n2)c(C)s1
    -1.9%, 8.9%
- COc1c2ccoc2cc2oc(C)cc(=O)c12
    3.7%, 3.4%
- O=C1C=CC2(OCCCO2)C(Br)=C1CO
    -2.8%, -18.2%

In the list so far, 3 have a furan ring, fused or not:
Below each compound – Lassa entry, Marburg entry
- C=C1C([C@@]2(C)C(OC(C)=O)CC(=O)O[C@@](C)(COC(C)=O)C2CC(=O)OC)C(OC=O)C(OC(=O)C(OC(C)=O)C(C)CC)[C@]2(C)C(c3ccoc3)CC(=O)C12O (stereo not given in full)
    -1.8%, -0.5%
- O=S1CCN(Cc2ccc(-c3ccc4ncnc(Nc5ccc(OCc6ccccc6)c(F)c5)c4c3)o2)CC1
    ·, ?
- COc1c2ccoc2cc2oc(C)cc(=O)c12
    3.7%, 3.4%

Other structures
Below each compound – Lassa entry, Marburg entry
- Nc1ncnc2occ(-c3ccc(NC(=O)Nc4cc(C(F)(F)F)cc(C(F)(F)F)c4)cc3)c12
    ?, ?
- OC1(c2cccnc2)CCN(Cc2ccc3c(c2)CN(Cc2ccc(Cl)cc2)CCO3)CC1
    6.1%, 4.2%
- NCCc1c[nH]c2ccc(O)cc12
    ?, ?
- O=CN1CC2CC(C1)c1cccc(=O)n1C2 (stereo not given)
    0.2%, -3.8%
- CCC(=O)OC1C2CC3=C4CC(=O)OC(c5ccoc5)[C@]4(C)CCC3[C@@](C)(C2=O)C(CC(=O)OC)C1(C)C (stereo not given in full)
    -4.8%, -9.6%
- CCCCC/C=C\C/C=C\CCCCCCCC(=O)O
    -4.9%&-5.6%&1.0%, 21.4%&-2.5%&3.2%
- C=CCOC(=O)N[C@@H](CCc1ccccc1)C(C(C)=O)C(C)=O
    -8.8%, 15.8%
- CCn1c(-c2ccccc2F)nc2cc(NC(C)=O)cc(C(=O)N(C)Cc3cn(C)nc3C)c21
    -13.4%, -8.9%
- COC(=O)N1C(C2CC2)=Cc2ccccc2C1CC(C)=O (stereo not given)
    0.9%, 26.2%
- Cc1cc(O)cc(C)c1C=Cc1cncc(-c2nn[nH]n2)c1
    37.5%, -16.2%
- O=C(Cc1c[nH]c2ccccc12)N1CCC(n2c(C3CCCO3)nc3cc(C(F)(F)F)ccc32)CC1 (stereo not given)
    -11.5%, -10.0%
- FC(F)(F)c1ccccc1-c1cncnc1Nc1ccccc1
    3.9%, 1.8%
- C#CCN1CC(=O)N(COC(=O)C2C(C=C(C)C)C2(C)C)C1=O (stereo not given)
    -6.8%, -5.7%
- CCC1(C2CCN(C(=O)c3cc4ccccc4o3)CC2)NC(=O)N(CCc2scnc2C)C1=O (stereo not given)
    -1.4%, -16.0%
- CO[C@@H]1[C@@H](OC(N)=O)[C@@H](O)[C@H](Oc2ccc3c(O)c(NC(=O)c4ccc(O)c(CC=C(C)C)c4)c(=O)oc3c2C)OC1(C)C
    4.9%, 1.6%
- CCN1C[C@@]2(OC(=O)c3ccccc3NC(C)=O)CCC(OC)[C@@]34C5CC6C(OC)C[C@@](O)(C(CC23)[C@@H]14)C5(O)C6OC (stereo not given in full)
    10.7%, 8.8%
- CSC[C@H]1CN(Cc2ccccc2)C(=O)[C@H]1CC(=O)Nc1ccccc1
    19.6%, 23.2%
- CC[C@@H]1O[C@]2(C=C[C@@H]1C)C[C@H]1C[C@H](CC=C(C)[C@@H](O[C@@H]3C[C@H](OC)[C@H](O[C@@H]4C[C@H](OC)[C@H](O)[C@H](C)O4)[C@H](C)O3)[C@@H](C)C=CC=C3CO[C@@H]4[C@@H](O)C(C)=C[C@@H](C(=O)O1)[C@]34O)O2
    ?, ?
- O=S1(=O)N[C@@H](Cc2ccccc2)COc2cc(NC3CC3)ccc21
    15.3%, 31.1%[activator]
- CN(Cc1ccc2c(c1)CN(C(=O)c1cccc(N(C)C)c1)CCO2)Cc1cc(C2CC2)n[nH]1
    -10.1%, ?

An excerpt of these results, with each value named.
C#CCN1CC(=O)N(COC(=O)C2C(C=C(C)C)C2(C)C)C1=O (stereo not given)
  Lassa entry = -6.8%
  Marburg entry = -5.7%
CCC1(C2CCN(C(=O)c3cc4ccccc4o3)CC2)NC(=O)N(CCc2scnc2C)C1=O (stereo not given)
  Lassa entry = -1.4%
  Marburg entry = -16.0%

The listing continues:
Below each compound – Lassa entry, Marburg entry
- COc1cccc([C@H](O)Cn2cc(-c3ccc(CON=C(C)C)cc3)nn2)c1
    ·, 7.9%[8.59 µM]
- COC(=O)CC1OC1[C@H](C)[C@@H](OC)C(C)C (stereo not given in full)
    ·, -14.5%[8.59 µM]
- CN(C)C(=O)Oc1cc(OC(=O)N(C)C)cc(C(O)CNC(C)(C)C)c1 (stereo not given)
    5.5%, 10.3%
- CC[N+](CC)(CC)CC(=O)Nc1c(C)cccc1C
    9.9%&-12.1%&-7.1%&-17.9%, 11.6%&5.1%&0.2%&10.7%
- Nc1ncnc2c1ncn2[C@@H]1O[C@H](COP(=O)(O)OP(=O)(O)CP(=O)(O)O)[C@@H](O)[C@H]1O
    -2.1%, -16.9%
- COc1cc(O)c(C(=O)/C=C/c2ccccc2)c(OC)c1
    -14.9%, -16.9%
- CCC1CN(Cc2cccn2-c2ccccn2)Cc2cc(OC)ccc2O1 (stereo not given)
    3.4%, 1.4%
- CC(C)C[C@@H](CC(=O)N[C@H](CC(=O)N[C@@H]1CCNC[C@H]1C(=O)N[C@H](CC(=O)N[C@@H](CCC(=O)O)CC(=O)O)Cc1c[nH]c2ccccc12)C(C)C)NC(=O)[C@@H]1CNCC[C@H]1N
    8.3%, -20.7%
- COc1cc(=O)n2c(c1C(=O)NC(C)c1ccco1)CCN(C(=O)c1cccc(C)c1C)CC2 (stereo not given)
    -5.2%, -1.5%
- O=C(NCC1Cc2cccc(-c3ncccn3)c2O1)C1CCCO1 (stereo not given)
    -7.7%, -12.0%
- C[C@H]1[C@H](c2ccccc2)Oc2cc(Br)ccc2S(=O)(=O)N1Cc1cccc(Cl)c1
    11.4%, -34.0%
- CC(C)(S)[C@@H](N)C(=O)O
    -1.8%, -8.0%

Entries of single compounds from above. Screens in order: Lassa entry, Marburg entry
CN(C)C(=O)Oc1cc(OC(=O)N(C)C)cc(C(O)CNC(C)(C)C)c1 (stereo not given) in the list: 5.5%, 10.3%
CC(C)C[C@@H](CC(=O)N[C@H](CC(=O)N[C@@H]1CCNC[C@H]1C(=O)N[C@H](CC(=O)N[C@@H](CCC(=O)O)CC(=O)O)Cc1c[nH]c2ccccc12)C(C)C)NC(=O)[C@@H]1CNCC[C@H]1N in the list: 8.3%, -20.7%
O=C(NCC1Cc2cccc(-c3ncccn3)c2O1)C1CCCO1 (stereo not given) in the list: -7.7%, -12.0%
CC(C)(S)[C@@H](N)C(=O)O in the list: -1.8%, -8.0%
COc1cc(=O)n2c(c1C(=O)NC(C)c1ccco1)CCN(C(=O)c1cccc(C)c1C)CC2 (stereo not given) in the list: -5.2%, -1.5%

Not a hit list. About 8.2% of those tested had a hit in this group.
